# Screens from PubChem BioAssay.
# Polio RdRp inh: inhibitors of poliovirus RNA polymerase binding and polymerization | P03300 | poliovirus polymerase elongation, fluorescence polarization; active compounds read low | % elongation, % (compound at 16.7 µg/mL) | hit rate 0.66% among 150,000 | AID 588519; in the data active = % elongation below about 90%; also: some results filed as inactive read as strong as hits
# Target sequence (P03300 1749-2209 limits assumed): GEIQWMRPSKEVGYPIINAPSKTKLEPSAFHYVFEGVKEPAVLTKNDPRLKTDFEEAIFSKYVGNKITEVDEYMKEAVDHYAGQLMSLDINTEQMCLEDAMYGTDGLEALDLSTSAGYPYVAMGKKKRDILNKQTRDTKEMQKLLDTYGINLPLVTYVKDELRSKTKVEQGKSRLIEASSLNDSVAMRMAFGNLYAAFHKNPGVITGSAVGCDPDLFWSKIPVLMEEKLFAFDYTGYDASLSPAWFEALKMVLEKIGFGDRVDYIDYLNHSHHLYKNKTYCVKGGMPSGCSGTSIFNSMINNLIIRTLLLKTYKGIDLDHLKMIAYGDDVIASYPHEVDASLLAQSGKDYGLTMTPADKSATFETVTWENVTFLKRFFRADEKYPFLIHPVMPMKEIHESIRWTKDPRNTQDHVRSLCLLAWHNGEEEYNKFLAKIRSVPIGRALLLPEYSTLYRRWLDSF
# MenB inh: Mtb MenB enzyme inhibition; P9WNP5; MenB enzyme assay, absorbance read-out; some hits fall short of the stated cut; inhibition, %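 (about 12 µg/mL by stock and volumes)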; hit rate 0.43% among 100,000;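 active = mean of two replicates above 30%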;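 also: 0% = no compound and 100% = wells with inactive enzyme; the first replicate is given; strong numbers were not always called active; inactives centre near -10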
# MbtI inh: MbtI salicylate synthase inhibition; hit rate 0.89% among 100,000; inhibition, %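 (about 17 µg/mL by stock and volumes)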; purified MbtI enzyme, fluorescence intensity read-out; AID 493033; P9WFX0;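 active = above 50% in both replicates, above 80% if mildly self-fluorescent; inactive = the rest, strongly fluorescent compounds included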;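 also: 0% = mean of negative and 100% = mean of positive controls; one replicate is shown; some compounds called inactive have numbers as strong as hits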
# Target sequence (P9WFX0 whole entry, looked up): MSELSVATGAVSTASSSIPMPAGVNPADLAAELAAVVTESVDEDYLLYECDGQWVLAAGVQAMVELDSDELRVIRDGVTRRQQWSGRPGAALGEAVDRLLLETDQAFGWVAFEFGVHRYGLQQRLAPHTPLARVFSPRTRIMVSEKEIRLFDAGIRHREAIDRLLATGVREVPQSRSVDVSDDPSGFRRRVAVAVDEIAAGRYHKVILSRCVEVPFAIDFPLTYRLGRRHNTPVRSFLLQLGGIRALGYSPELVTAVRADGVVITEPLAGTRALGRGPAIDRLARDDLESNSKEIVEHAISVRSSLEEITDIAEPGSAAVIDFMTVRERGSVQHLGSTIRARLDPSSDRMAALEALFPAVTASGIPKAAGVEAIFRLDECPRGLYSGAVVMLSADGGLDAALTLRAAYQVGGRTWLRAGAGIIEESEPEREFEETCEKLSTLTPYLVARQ
# Polio RdRp inh intensity: also measured in Polio RdRp inh; calls as there; % elongation; measured here: total intensity read-out; formula for this scale not given here;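 total fluorescence in place of polarization; lower means less elongation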
# Starred values were filed as active, the others as inactive; nt = no result given.
Structure,Polio RdRp inh,Polio RdRp inh intensity,MenB inh,MbtI inh
O=S1(=O)CCC(N(CC2CCCO2)S(=O)(=O)C2=Cc3ccccc3CC2)C1 (stereo unspecified),103,101,-21,12
O=C(c1cc2c(s1)CCC2)N1CCc2ccccc21,103,105,nt,-14
COc1ccc(-c2nn(CN(C)C3CCCCC3)c(=S)n2CC2CCCO2)cc1 (stereo unspecified),108,108,-19,12
COC(=O)c1cc(-c2ccc(Cl)cc2)nc2onc(C(C)C)c12,98,94,3,27
O=C(Nc1ccccc1C(F)(F)F)C1c2ccccc2Oc2ccccc21,100,99,-10,-11
Cc1nc2ccccc2n1C1CC(=O)N(c2ccccc2)C1=O (stereo unspecified),109,109,-1,3
Cc1cc(C)c2c(=O)n(C(=O)c3ccc(Cl)cc3)sc2n1,108,117,-9,56
CC1CC(C)CN(S(=O)(=O)c2ccccc2)C1 (stereo unspecified),100,98,-43,-11
CCC(=O)NCCSc1c[nH]c2ccccc12,103,106,-10,-7
CC(C)(O)P(C)(=O)c1ccccc1 (stereo unspecified),101,105,-3,-17
O=C(CSc1nnc(-c2cccnc2)n1C1CC1)c1c[nH]c2ccccc12,105,108,-2,9
Nc1nc(S(=O)(=O)c2ccc(Cl)cc2)c(Cl)s1,105,102,-22,18
Cc1c(N=C2C(=O)Nc3ccccc32)c(=O)n(-c2ccccc2)n1C,102,101,-43,-3
COc1ccc(OCCN(C)C(=O)c2ccc(-n3cccn3)cc2)cc1,101,103,-13,8
Cc1onc(-c2c(Cl)cccc2Cl)c1NC(=O)NNc1cc(Cl)ccc1Cl,102,104,-24,-6
O=C(O)Cn1nnc(N2CCCC2)n1,103,94,-14,5
C=CCC(C(=O)OC)N1CCOCC1 (stereo unspecified),101,103,17,-5
Cc1cc(C)n(-c2nc(N(c3ccccc3)c3ccccc3)nc(-n3nc(C)cc3C)n2)n1,106,103,-28,1
CN(C)CCCNc1nc(-c2cccs2)nc2sc3c(c12)CCCC3,100,87,-31,-59
CCc1nn(CC(=O)NC(C)c2ccc3c(c2)OCCO3)c(=O)c2cc3sc(C)cc3n12 (stereo unspecified),100,101,-10,2
O=S(=O)(Cc1cccc(C(F)(F)F)c1)Cc1nc(-c2ccc(C(F)(F)F)cc2)cs1,102,97,-24,-6
O=C(COc1ccccc1O)Nc1ccccc1,107,104,3,nt
O=C(CS(=O)(=O)Cc1ccccc1)N1CCCc2ccccc21,97,97,-3,nt
CCc1ccccc1NC(=O)CN1CCN(C(=O)CCS(=O)(=O)c2ccc(C)cc2)CC1,105,103,-26,-6
CCCN1C2=C(C(=O)CCC2)C(c2ccc(O)c(Br)c2)C2=C1CCCC2=O,103,106,-54,7
O=C(/C=C/c1cccs1)OCC(=O)N1CCCC1,100,106,nt,5
CC(=O)Nc1ccc(/C=N/NC(=S)NC(C)C)cc1,108,104,-12,15
CCN(CC)C(=O)c1ccc(O)c(OC)c1,100,101,4,-1
COc1ccccc1NS(=O)(=O)c1cccc(C(=O)Nn2cnnc2)c1,72*,80*,15,-5
C=CCN1C(=O)/C(=C\c2ccc(C(=O)O)cc2)S/C1=N\c1nnc(C)s1,102,103,-1,nt
O=C(NCc1ccccc1)C12CC3CC(CC(C3)C1)C2,104,96,nt,0
CC(=O)N(c1ccc2oc(=O)sc2c1)S(=O)(=O)c1cccs1,104,102,-38,-16
CC(C)N(CC(N)=O)C(=O)c1cc2ccccc2o1,104,109,-6,-7
CC(=O)N1CC(C)Sc2cc(S(=O)(=O)N(C)c3ccc(C)cc3)ccc21 (stereo unspecified),103,108,-2,-8
O=C(O)c1ccc(-n2c(-c3ccccc3)cc3c2CCCC3)cc1,103,109,-53,2
COc1cc2c(cc1NC(=O)c1cc(C)oc1C)oc1ccccc12,105,115,-33,17
CC1CCCCN1CC(=O)N1CCN(C(=O)CN2CCCCC2C)CC1 (stereo unspecified),100,100,17,-6
COc1ccc(OC(=O)N2CCOCC2)cc1,100,97,1,0
CCOc1ccc(CCNC(=O)Cn2nc(C)n3cccc3c2=O)cc1OCC,104,100,2,-7
COc1ccc(-c2noc(CC(=O)N(C)c3ccccc3)n2)cc1,nt,nt,-14,-12
COc1cc(C)c(N)cc1C(C)C,99,99,19,6
O=C(CCN1C(=O)c2cccnc2Sc2ccccc21)N1CCCCC1,101,105,5,-13
COc1cccc(-n2c(=O)c3sccc3n(Cc3ccc(F)cc3Cl)c2=O)c1,101,103,-26,-11
Cc1ccc(S(=O)(=O)N2CCN(C(=O)CSc3ccccn3)CC2)c(C)c1,103,116,-4,24
C=CCSc1nnc2n(-c3ccccc3)c(=O)c3c(C)c(C)sc3n12,100,99,-16,0
O=C(COc1ccc(Cl)cc1Cl)N(c1ccccn1)C1CCCCC1,109,107,-4,nt
CCC(CC)c1nnc(NC(=O)CS(=O)(=O)Cc2ccccc2)s1,103,101,-25,10
Cc1cc(C(=O)CSc2ccc(S(=O)(=O)N(C)C)cn2)c(C)n1-c1ncn[nH]1,101,98,-5,-3
O=C(CSc1nc2ccccc2[nH]1)NCCC1=CCCCC1,101,99,nt,-1
CN(C)c1oc(-c2ccccc2)nc1S(=O)(=O)c1ccccc1,101,98,-16,-2
c1ccc(C(N2CCOCC2)N2CCOCC2)cc1,100,102,-42,-2
OCc1cc(CO)c(O)c(CCc2ccccc2)n1,99,103,-3,90
c1ccc(-c2nnc(N3CCOCC3)nc2-c2ccccc2)cc1,108,115,1,-11
O=C(CN1C(=O)COc2ccccc21)Nc1ccc(Cl)cc1,106,102,-57,0
O=C1c2ccccc2C(Nc2cccc(C(F)(F)F)c2)N1Cc1ccco1 (stereo unspecified),98,104,2,18
NC(=S)NN=C1CCCCC1,101,102,-38,-3
O=C1CCCc2c1cc(C(=O)Nc1ccc(Cl)cn1)c(=O)n2-c1ccccc1,101,101,-6,2
CN(Cc1ccccc1)Cc1c(O)ccc2c(=O)c(-c3ccccc3)coc12,100,102,0,-53
CCOC(=O)c1sc2nc3n(c(=O)c2c1C)CCCCC3,100,100,-1,7
COc1ccc2oc(=O)c(C(=O)N3CCCCC3)cc2c1,95,97,-7,nt

# Additional entries follow.
Structure,Polio RdRp inh,Polio RdRp inh intensity,MenB inh,MbtI inh
Nc1ccc2nc(SCCOc3ccccc3)sc2c1,103,101,-11,-8
CC(=O)NCCN=Cc1sc2ccccc2c1O,102,102,-374,33
N#Cc1ccccc1CSc1nnc(COc2ccccc2Cl)n1C1CC1,100,98,-27,2
CN1CCN(S(=O)(=O)c2cccc(C(=O)N3CCN(C/C=C/c4ccccc4)CC3)c2)CC1,105,106,-9,-5
COc1ccc(C2OC(=O)Cc3cc(OC)c(OC)cc32)cc1 (stereo unspecified),104,110,-6,nt
O=C(COc1ccccc1)NNc1nc2c(F)cccc2s1,100,105,7,-1
COc1ccccc1N1C(=O)C(Cc2ccccc2)N=C1N1CCOCC1 (stereo unspecified),103,104,-20,-44
CC(C)(C)CC(=O)NC(C)(C)C,100,101,19,0
c1ccc2c(c1)CC(N1CCCCC1)c1ccccc1N2 (stereo unspecified),101,98,2,-45
COC(=O)C1=C(C(=O)c2ccccc2)C(c2ccc(C(=O)OC)cc2)n2nnnc2N1 (stereo unspecified),104,105,-112,8
CC(C)CCN1C(=O)c2ccc(C(=O)OCC#N)cc2C1=O,104,101,11,16
COc1ccc(NC(=O)C2CC2C)c(OC)c1 (stereo unspecified),107,104,-3,12
O=C(N1N=CCC1c1ccccc1)C12CC3CC(CC(C3)C1)C2 (stereo unspecified),111,114,-16,nt
O=C(O)c1ccc(C2SCCCS2)cc1,97,104,17,4
CCC(CC)C(=O)Nc1ncc2c(n1)CC(C)CC2=O (stereo unspecified),102,103,0,-8
O=C(CCc1nc2cccnc2n1-c1ccccc1)NC1CCCC1,100,99,1,-2
O=C(CCCc1ccccc1)NN1CCOCC1,103,98,-24,-10
COCCSc1nnc(NS(=O)(=O)c2ccccc2)s1,100,103,11,30
O=C(COC(=O)CC1CC2CCC1C2)NC1CC1 (stereo unspecified),100,100,nt,-4
CC(C)(C)c1ccc(C(=O)NCCN2CCOCC2)cc1,107,107,-10,nt

# Taken from the listing for reference:
Structure,Polio RdRp inh,Polio RdRp inh intensity,MenB inh,MbtI inh
Nc1ccc2nc(SCCOc3ccccc3)sc2c1,103,101,-11,-8
CC(=O)NCCN=Cc1sc2ccccc2c1O,102,102,-374,33
N#Cc1ccccc1CSc1nnc(COc2ccccc2Cl)n1C1CC1,100,98,-27,2
CN1CCN(S(=O)(=O)c2cccc(C(=O)N3CCN(C/C=C/c4ccccc4)CC3)c2)CC1,105,106,-9,-5
COc1ccc(C2OC(=O)Cc3cc(OC)c(OC)cc32)cc1 (stereo unspecified),104,110,-6,nt
O=C(COc1ccccc1)NNc1nc2c(F)cccc2s1,100,105,7,-1
COc1ccccc1N1C(=O)C(Cc2ccccc2)N=C1N1CCOCC1 (stereo unspecified),103,104,-20,-44
CC(C)(C)CC(=O)NC(C)(C)C,100,101,19,0
c1ccc2c(c1)CC(N1CCCCC1)c1ccccc1N2 (stereo unspecified),101,98,2,-45
COC(=O)C1=C(C(=O)c2ccccc2)C(c2ccc(C(=O)OC)cc2)n2nnnc2N1 (stereo unspecified),104,105,-112,8
CC(C)CCN1C(=O)c2ccc(C(=O)OCC#N)cc2C1=O,104,101,11,16
COc1ccc(NC(=O)C2CC2C)c(OC)c1 (stereo unspecified),107,104,-3,12
O=C(N1N=CCC1c1ccccc1)C12CC3CC(CC(C3)C1)C2 (stereo unspecified),111,114,-16,nt
O=C(O)c1ccc(C2SCCCS2)cc1,97,104,17,4
CCC(CC)C(=O)Nc1ncc2c(n1)CC(C)CC2=O (stereo unspecified),102,103,0,-8
O=C(CCc1nc2cccnc2n1-c1ccccc1)NC1CCCC1,100,99,1,-2
O=C(CCCc1ccccc1)NN1CCOCC1,103,98,-24,-10
COCCSc1nnc(NS(=O)(=O)c2ccccc2)s1,100,103,11,30
O=C(COC(=O)CC1CC2CCC1C2)NC1CC1 (stereo unspecified),100,100,nt,-4
CC(C)(C)c1ccc(C(=O)NCCN2CCOCC2)cc1,107,107,-10,nt

# Profiles, quoted from the list.
# Shown for COc1ccc(NC(=O)C2CC2C)c(OC)c1 (stereo unspecified) : Polio RdRp inh: 107; Polio RdRp inh intensity: 104; MenB inh: -3; MbtI inh: 12
# Shown for CCC(CC)C(=O)Nc1ncc2c(n1)CC(C)CC2=O (stereo unspecified) : Polio RdRp inh: 102; Polio RdRp inh intensity: 103; MenB inh: 0; MbtI inh: -8

# The listing continues:
Structure,Polio RdRp inh,Polio RdRp inh intensity,MenB inh,MbtI inh
CCCN1C(=O)/C(=N\OCC(=O)Nc2cccc(Cl)c2)c2ccccc21,102,107,-12,2
COc1ccccc1NC(=O)[C@H](CSCc1ccccc1)N1Cc2ccccc2C1=O,104,107,-11,-4
Cc1csc(=O)n1CC(=O)OCC(=O)c1ccc(Cl)s1,109,115,-18,21
O=C(Cn1c(=O)oc2cc(S(=O)(=O)NC3CCCC3)ccc21)NCc1cccs1,102,106,-6,1
CC(C)N(Cc1nc(-c2ccccc2)no1)C(=O)c1cccs1,103,103,-68,-2
COC(=O)CC1SC(=O)NC1=Nc1cccc(C)c1 (stereo unspecified),99,104,-3,3
O=S(=O)(Nc1nc2ccccc2nc1SCCO)c1cc(F)ccc1F,105,101,-3,-25
NC(=O)c1ccsc1NC(=O)Cc1c[nH]c2ccccc12,112,126,-11,-6
CC(C)(C)c1ccc2c(c1)CN(c1ccc(F)cc1)CO2,101,102,-7,7
COC(=O)c1ccc(COC(=O)CNC(=O)C23CC4CC(CC(C4)C2)C3)o1,102,100,-8,-7
CCc1cc2c3c([nH]c2cc1S(=O)(=O)Nc1cccnc1)CCCC3=O,101,103,-20,-20
Cc1ccc(-c2n[nH]c(=S)n2CCC(=O)O)cc1,108,109,-16,103
O=C(CCc1ccccc1)N=Nc1c(O)[nH]c2ccccc12,102,102,-11,14
COc1cccc(-c2noc(NC3CCN(Cc4ccccc4)CC3)n2)c1OC,103,102,-21,-11
FC(F)(F)c1cccc(Nc2ncnc3sc4c(c23)CCC4)c1,101,101,-17,nt
CC(C)c1cc(C(=O)N/N=C/c2ccccc2)n[nH]1,105,101,-16,1
CCn1c2ccccc2c2cc(NC(=O)NCc3noc4ccccc34)ccc21,101,103,1,-11
COc1cccc(-c2nn(C)c3sc(C(=O)N4CCCCC4C)cc23)c1 (stereo unspecified),103,107,-36,4
Nc1ccc(-c2cnc(-c3ccc(N)cc3)nc2)cc1,103,104,-7,nt
O=C(O)CC(c1ccccc1)N1C(=O)c2ccccc2C1=O (stereo unspecified),99,101,-5,-1
N#Cc1cc(C(=O)c2ccco2)c2nc3ccccc3n2c1N,45,243,-32,7
CC(C)(C)N=Cc1c(O)n(-c2ccccc2Cl)c(=O)c2ccccc12,100,101,nt,-6
CSc1nc(C)nc(N/C=C(\C#N)C(=O)C2CC2)n1,102,102,-5,-3
